PABP FP inh = PABP poly(A) RNA binding inhibitors, primary screen, biochemical, fluorescence polarization, uHTS. inhibition, % at 35 µM. hit rate 1% among 290,000;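 active = 50% or more with normal probe brightness, or confirmed in later tests; about a fifth of its hits are not listed in these tables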;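 note: calls also rest on retests at 20 µM and on dose response follow-up; controls were probe without protein and protein plus probe with vehicle; some compounds called inactive have numbers as strong as hits; many hits fall short of the cut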
Target sequence (P11940 whole entry, looked up): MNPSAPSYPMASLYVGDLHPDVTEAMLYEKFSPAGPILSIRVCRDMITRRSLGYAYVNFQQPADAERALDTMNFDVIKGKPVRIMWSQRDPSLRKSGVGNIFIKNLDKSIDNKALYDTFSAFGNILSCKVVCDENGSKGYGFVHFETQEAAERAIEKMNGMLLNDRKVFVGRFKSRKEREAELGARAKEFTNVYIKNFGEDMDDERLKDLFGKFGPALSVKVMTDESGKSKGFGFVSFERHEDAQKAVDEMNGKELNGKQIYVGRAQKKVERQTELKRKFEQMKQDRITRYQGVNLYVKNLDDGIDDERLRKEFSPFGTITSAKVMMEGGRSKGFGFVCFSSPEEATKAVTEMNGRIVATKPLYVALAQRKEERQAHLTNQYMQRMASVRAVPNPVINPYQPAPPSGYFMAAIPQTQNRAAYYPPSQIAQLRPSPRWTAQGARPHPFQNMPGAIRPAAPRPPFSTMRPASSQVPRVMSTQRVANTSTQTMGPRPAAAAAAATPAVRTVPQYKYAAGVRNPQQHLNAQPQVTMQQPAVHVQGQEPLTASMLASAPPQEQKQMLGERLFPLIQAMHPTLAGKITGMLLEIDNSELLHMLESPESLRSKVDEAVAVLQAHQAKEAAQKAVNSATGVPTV
HIV Env fusion = inhibitors of HIV-1 Env-driven cell-cell fusion, primary screen, HeLa-JRFL effector, CEM21 target cells, luciferase. inhibition, % at 12.3 µM. hit rate 1.1% among 360,000. AID 651610, 2012;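 active = mean replicate inhibition score of at least 50 and every replicate individually at or above 50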;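 note: 0% = plate neutral controls and 100% = maraviroc near 300 nM; one replicate is shown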
UUG fidelity = modulators of yeast start codon fidelity, primary screen, whole organism, S. cerevisiae, single point, plate reader; S. cerevisiae UUG-firefly luciferase reporter, luminescence/redox ratio; activity score, % at 18.7 µM; hit rate 0.13% among 350,000; AID 602363, 2012;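 active = replicate mean at a twofold rise or more, about +100% in these data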;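 note: firefly luciferase made from a UUG start codon reports start codon fidelity; reporter light over untreated wells divided by growth signal over untreated wells; some hits fall short of that in this replicate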
eIF4H inh = human eIF4H binding inhibitors, primary screen, translation initiation inhibitor project, biochemical, uHTS, fluorescence polarization; inhibition, % at 35 µM; eIF4H fluorescence polarization binding assay; AID 2012, 2009; Eukaryotic translation initiation factor 4H (Homo sapiens), Q15056; hit rate 0.94% among 290,000;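 active = 50% or more with normal probe brightness, or confirmed in later tests; about a fifth of its hits are not listed in these tables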;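 note: calls also rest on retests at 20 µM and on dose response follow-up; 0% = protein and probe with vehicle and 100% = probe without protein; strong numbers were not always called active; many hits fall short of the cut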
MT1-MMP act inh = blockers of MT1-MMP proenzyme processing, primary screen, HT1080 RFP-PRO-GFP cells, GFP/RFP fluorescence; Matrix metalloproteinase-14 (Homo sapiens), P50281; GFP/RFP ratio fluorescence, overnight; percent of plate control window, DMSO zero; GFP/RFP ratio change, % at 20 µM; hit rate 0.061% among 360,000;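 active = GFP/RFP ratio change of at least 30% with cell ATP level not reduced by more than half and red fluorescence within 50% of control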; note: strong numbers were not always called active
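Compound: 20 µM single dose, 1% DMSO / System: HT1080 RFP-PRO-GFP cells / Controls: DMSO and RFP-L50D-GFP cell wells / Read-out basis: GFP/RFP fluorescence ratio / Schedule: overnight compound exposure at 37 °C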
Rce1 inh = yeast Rce1p protease inhibitors, primary screen, biochemical, fluorescence, cell-free homogeneous. AID 2563, 2010. hit rate 0.27% among 290,000. yeast membranes, quenched prenylated peptide cleavage fluorescence. calls only;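 active = fall in fluorescence gain of 50% or more versus controls, with final raw signal at or below 3038400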;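 note: plate controls were neutral control wells for no effect and wells lacking membranes for full effect; tested at 10 µM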
CSC inhib = cancer stem cell viability inhibitors, primary screen, luminescence; cancer stem cell-like cells viability; inhibition, % at 7.5 µM; hit rate 1.1% among 300,000; AID 2717, 2010;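 active = mean at 75% or more and at least half the replicates too; tested in HMLE shEcad cells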;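 note: 0% = median of negative and 100% = median of positive control wells; the first replicate is given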
eIF4H inh retest = further read-out of eIF4H inh, marked with its call; inhibition, %; compound at 20 µM; confirmation average;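 mean of two retest wells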
PABP FP inh retest = also measured in PABP FP inh; calls as there; inhibition, %; compound at 20 µM; confirmation repeats;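 mean of two retest wells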
MT1-MMP act inh RFP = recorded beside MT1-MMP act inh, whose call it bears; RFP signal change, %; measured here: RFP expression control read;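 0 = vehicle wells; hits needed this value within 50% of zero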
* hit, by the source's call; i = inactive; x = not tested or not shown; & = joins results of further samples.

Sample of the layout, 15 compounds:
SMILES | PABP FP inh | HIV Env fusion | UUG fidelity | eIF4H inh | MT1-MMP act inh | MT1-MMP act inh RFP | Rce1 inh | CSC inhib | others
COc1ccc(CN(C)C(=O)Cc2ccsc2)c(OC)c1OC | -9 | 8 | -38 | 18 | 3 | 2 | i | -9
Nc1ncn(CC(=O)c2ccccc2)n1 | 2 | -5 | x | -1 | -1 | 1 | i | -5
N#Cc1cc2ccc(N3CCOCC3)cc2cc1C#N | 26 | x | -2 | 19 | 9 | 2 | i | 26
CCCc1c(C)nc(N2CCN(c3cccc(OC)c3)CC2)[nH]c1=O | -1 | 12 | -8 | 2 | 8 | -7 | i | -4
CSc1ncccc1C(=O)Nc1cc(Cl)ccc1N1CCOCC1 | x | x | -10 | x | 2 | 3 | x | 3
CC(C)Sc1nnc(NC(=O)C2CC2)s1 | 5 | -3 | -2 | -2 | 0 | 3 | i | -5
Cc1ccc(CSc2nnc(C(F)(F)F)n2Cc2ccc(F)cc2)cc1 | -8 | x | 14 | -6 | -6 | -3 | i | 6
Cc1ccc(NC(=O)CN(C)C(=O)c2cn(Cc3ccccc3)nc2-c2cccnc2)cc1 | x | -29 | -13 | x | 1 | 0 | x | x
NC(=O)C1CC(=O)N(c2ccc(OCc3ccc(F)cc3)cc2)C1 (stereo unspecified) | -7 | -34 | -19 | 4 | 1 | -3 | i | -10
O=C(COC(=O)Cn1cnc2ccccc2c1=O)NNC(=O)c1ccc(Br)cc1 | x | -27 | -12 | x | 6 | 3 | x | 3
Cc1cc(=O)[nH]c(/N=C(\N)Nc2ccc(Oc3ccccc3)cc2)n1 | 0 | 9 | -14 | 5 | 10 | -6 | i | 0
CCCCCOc1ccc(C(=O)CCC(=O)NNC(=O)c2ccncc2)cc1 | x | -8 | -28 | x | 2 | 4 | x | x
C=CCS(=O)(=O)c1nc2ccccc2s1 | 12 | x | -5 | -6 | -3 | -5 | i | 26
COc1ccc(CCN(C)C2CCCN(S(=O)(=O)C(C)C)C2)cc1OC (stereo unspecified) | 12 | 6 | -15 | 8 | 1 | 4 | i | -7
CC1(C)Cc2c(sc3nc[nH]c(=O)c23)CO1 | 3 | 8 | 61 | 5 | 2 | 2 | i | 3

Results, previewed entries included:
SMILES | PABP FP inh | HIV Env fusion | UUG fidelity | eIF4H inh | MT1-MMP act inh | MT1-MMP act inh RFP | Rce1 inh | CSC inhib | others
COc1ccc(CN(C)C(=O)Cc2ccsc2)c(OC)c1OC | -9 | 8 | -38 | 18 | 3 | 2 | i | -9
Nc1ncn(CC(=O)c2ccccc2)n1 | 2 | -5 | x | -1 | -1 | 1 | i | -5
N#Cc1cc2ccc(N3CCOCC3)cc2cc1C#N | 26 | x | -2 | 19 | 9 | 2 | i | 26
CCCc1c(C)nc(N2CCN(c3cccc(OC)c3)CC2)[nH]c1=O | -1 | 12 | -8 | 2 | 8 | -7 | i | -4
CSc1ncccc1C(=O)Nc1cc(Cl)ccc1N1CCOCC1 | x | x | -10 | x | 2 | 3 | x | 3
CC(C)Sc1nnc(NC(=O)C2CC2)s1 | 5 | -3 | -2 | -2 | 0 | 3 | i | -5
Cc1ccc(CSc2nnc(C(F)(F)F)n2Cc2ccc(F)cc2)cc1 | -8 | x | 14 | -6 | -6 | -3 | i | 6
Cc1ccc(NC(=O)CN(C)C(=O)c2cn(Cc3ccccc3)nc2-c2cccnc2)cc1 | x | -29 | -13 | x | 1 | 0 | x | x
NC(=O)C1CC(=O)N(c2ccc(OCc3ccc(F)cc3)cc2)C1 (stereo unspecified) | -7 | -34 | -19 | 4 | 1 | -3 | i | -10
O=C(COC(=O)Cn1cnc2ccccc2c1=O)NNC(=O)c1ccc(Br)cc1 | x | -27 | -12 | x | 6 | 3 | x | 3
Cc1cc(=O)[nH]c(/N=C(\N)Nc2ccc(Oc3ccccc3)cc2)n1 | 0 | 9 | -14 | 5 | 10 | -6 | i | 0
CCCCCOc1ccc(C(=O)CCC(=O)NNC(=O)c2ccncc2)cc1 | x | -8 | -28 | x | 2 | 4 | x | x
C=CCS(=O)(=O)c1nc2ccccc2s1 | 12 | x | -5 | -6 | -3 | -5 | i | 26
COc1ccc(CCN(C)C2CCCN(S(=O)(=O)C(C)C)C2)cc1OC (stereo unspecified) | 12 | 6 | -15 | 8 | 1 | 4 | i | -7
CC1(C)Cc2c(sc3nc[nH]c(=O)c23)CO1 | 3 | 8 | 61 | 5 | 2 | 2 | i | 3
Cc1cccc(C(=O)OCC(=O)NCc2ccc(Cl)cc2)c1 | x | 1 | -33 | x | 2 | 5 | x | x
Cc1ccc2nc(C)cc(SCC(=O)N/N=C/c3ccco3)c2c1 | -7 | 6 | -14 | -6 | -1 | -1 | i | x
CCOC(=O)CSc1nnc(CNC(=O)c2ccc(OC)cc2)n1Cc1ccccc1 | -9 | 21 | 3 | -13 | 3 | 6 | x | -3
CCn1c2ccccc2c2cc(/C=N/n3cnnc3)ccc21 | 2 | x | -11 | -10 | 3 | -6 | i | -13
CCCC(=O)NCCCc1nc2ccccc2[nH]1 | 3 | 4 | -12 | -7 | 7 | 5 | i | -10
CCCN(CC(=O)Nc1ccccc1OC)C(C)C(=O)NC(C)CCc1ccccc1 (stereo unspecified) | 0 | 17 | -4 | 3 | -1 | -1 | i | 13
CCOc1cc(C2NC(=O)NC(C)=C2C(=O)OCc2ccccc2)ccc1O (stereo unspecified) | 1 | x | x | -8 | -2 | -3 | i | -12
C/C(=N/NC(=O)Cc1cc(=O)[nH][nH]1)c1ccc([N+](=O)[O-])cc1 | -7 | -6 | x | 74 | 2 | 1 | i | -3 | eIF4H inh retest=31;PABP FP inh retest=38
Cc1onc(-c2ccccc2Cl)c1C(=O)N1CCN(C=O)CC1 | 10 | -14 | -12 | -4 | 1 | 2 | i | 13
CC(C)(C)Nc1nc(SCC(=O)Nc2ccccc2Cl)nc(N2CCOCC2)n1 | 9 | 20 | -12 | -6 | -2 | -4 | x | -5
SMILES | PABP FP inh | HIV Env fusion | UUG fidelity | eIF4H inh | MT1-MMP act inh | MT1-MMP act inh RFP | Rce1 inh | CSC inhib | others
CCCCN(C(=O)c1ccc(NC2CC2)c([N+](=O)[O-])c1)c1c(N)n(CCCC)c(=O)[nH]c1=O | x | 3 | -14 | x | 4 | -2 | x | x
CC(C)(O)C#Cc1ccc(CN2CCN(CCc3ccccc3)C(CCO)C2)s1 (stereo unspecified) | -1 | -6 | x | 1 | -4 | -1 | i | 3
CN(C1CCCC1)C1CCN(C(=O)CNC(=O)/C=C/c2ccc(F)cc2)CC1 | 0 | 11 | -14 | 3 | 4 | 2 | i | x
COc1cccc(CNC(=O)Cn2nc(C)c([N+](=O)[O-])c2C)c1 | -6 | 3 | -5 | -8 | 7 | 3 | x | -10
O=C(COC(=O)c1cnccn1)Nc1ccc(Cl)cc1C(F)(F)F | x | 1 | -14 | x | 14 | 4 | i | -3
COc1ccc(C#Cc2ccc3c(c2)O[C@H](CN(C)C(C)=O)[C@H](C)CN([C@@H](C)CO)S3(=O)=O)cc1 | x | -12 | 14&0 | x | 3 | 1 | x | x
COC(=O)c1nc(-c2ccccc2)nc(-c2ccccc2)c1C(=O)OC | x | 16 | -6 | x | -1 | -2 | x | -5
O=C(NC(=S)Nc1nc(-c2ccccc2)cs1)c1ccco1 | -1 | -5 | 1 | -2 | 4 | 3 | i | -3
CC1(C)CC(=O)C(Sc2nnc(-c3ccc(O)cc3)n2CC2CCCO2)C(=O)C1 (stereo unspecified) | 20 | x | 4 | -2 | -5 | 3 | i | -7
COC(=O)c1ccccc1-c1ccc(C=O)o1 | 4 | -15 | x | 0 | 1 | 4 | x | -9
Cc1cc(C)n(-c2cc(N3CCOCC3)ncn2)n1 | 3 | -6 | -11 | -2 | -3 | 5 | i | -9
CCOc1ccccc1N1C(=O)CC(Sc2n[nH]c(-c3ccccc3)n2)C1=O (stereo unspecified) | -10 | -3 | x | -4 | 1 | 3 | i | 15
O=C1NCCCN1Cc1ccc(F)cc1Cl | 6 | 19 | 10 | 9 | 2 | 6 | i | x
COc1ccc(-c2cnnc(N/N=C/c3ccc(-c4ccc([N+](=O)[O-])cc4)o3)n2)cc1 | -6 | -276 | x | 1 | -3 | -13 | x | x
CC(=O)Nc1ccc(NC(=O)C(=O)c2cn(CC(=O)N3CCCCC3)c3ccccc23)cc1 | -7 | -5 | x | 2 | -3 | -4 | i | -7
CC1CCCCN1CCCNC(=O)c1ccc(N2CCCC2=O)cc1 (stereo unspecified) | 9 | 20 | -9 | 13 | -3 | -1 | i | -11
CN(Cc1ccccc1F)C(=O)c1ccc(NS(=O)(=O)c2ccc3[nH]c(=O)[nH]c3c2)cc1 | x | -16 | -1 | x | 9 | 1 | x | 2
CCOc1ncccc1C(=O)OCC(=O)c1ccccc1Br | 74 | -37 | x | -1 | 2 | 3 | i | -8 | eIF4H inh retest=-4;PABP FP inh retest=10
COC(=O)[C@@H](NC(=O)N1CCN(c2cccc(C(F)(F)F)c2)CC1)C(C)C | -6 | x | 3 | 5 | 5 | 2 | i | -6
CCN(c1ccc(OC)cc1)S(=O)(=O)c1cc(-c2cc(C)no2)ccc1OC | -2 | 1 | 25 | -2 | -1 | -1 | i | 7
CCN(C(=O)COC(=O)c1cccnc1SC)C1CCS(=O)(=O)C1 (stereo unspecified) | -10 | x | -6 | 2 | -5 | 3 | i | x
O=C(/C=C(\O)c1ccccc1)C(=O)NNC(=O)c1ccccc1 | 5 | 8 | 13 | -11 | -6 | 6 | i | 5
Cc1ccc(OCCOC(=O)C2CCN(S(=O)(=O)c3ccc(C)c(C)c3)CC2)cc1 | x | 4 | -15 | x | 2 | 10 | i | -6
Cc1ccc(C)c(NC(=O)CSc2nc3nc(-c4cccs4)cc(C(F)(F)F)c3c(=O)[nH]2)c1 | 2 | 14 | -3 | -3 | 3 | -13 | i | 96*
CSCCC(NC(=O)c1ccco1)C(=O)N1CCN(c2ccccc2O)CC1 (stereo unspecified) | x | -2 | -10 | x | 2 | 2 | x | -16
SMILES | PABP FP inh | HIV Env fusion | UUG fidelity | eIF4H inh | MT1-MMP act inh | MT1-MMP act inh RFP | Rce1 inh | CSC inhib | others
Cc1ccc(C)c(NC(=O)C(OC(=O)c2ccc(NC(=O)CC#N)cc2)c2ccccc2)c1 (stereo unspecified) | x | 12 | -11 | x | -10 | -3 | i | 17
O=C(c1ccc(S(=O)(=O)NCc2ccco2)cc1)N1CCN(c2ccc(F)cc2)CC1 | x | x | -12 | x | 3 | -6 | x | -4
Cc1ccccc1C(=O)N1CCN(S(=O)(=O)c2cccs2)CC1 | -3 | -12 | -18 | -4 | -2 | 0 | i | -2
COCCNC(=O)COC(=O)CSCc1nc2ccccc2s1 | 22 | -32 | -19 | 2 | -6 | 7 | i | 6
CC(=O)c1ccc(N2CCN(C(=O)c3cc(S(=O)(=O)N4CCOCC4)ccc3C)CC2)cc1 | x | -5 | 6 | x | 2 | -2 | x | -18
O=C(c1cc(-c2ccncc2)nc2ccccc12)N1CCN(c2ccccn2)CC1 | -1 | 49 | -8 | -21 | -5 | -9 | i | 45

Screens from PubChem.
